Source: PubChem BioAssay (ICCB-Longwood Screening Facility, Harvard Medical School)
Ecoli growth – E. coli growth inhibition; Escherichia coli growth, OD600, 23 h; stronger effect = lower value; AID 1053175; actives 0.21% (n = 330,000); OD600 absorbance (test concentration not listed);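 active = OD600 absorbance below the run mean of sample wells minus 3.6 SD, in any replicate, cut at about 0.56 in these data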;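 note: stock transfer was 300 nL into about 60 µL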
Numbers without * were called inactive; & = joins results of further samples. Some of the compounds tested. The share of hits here may be higher or lower than overall.

Start of the listing, in advance:
Structure,Ecoli growth
O=c1[nH]c(=O)n(-c2cccc3ccccc23)c(O)c1C=NN1CCCCC1c1cccnc1 (centres undefined),0.659
COC(=O)C1=C(c2ccc(F)cc2OCc2ccccc2)CC2CCC1N2C(=O)NCCCc1ccccc1 (centres undefined),0.692
COC(=O)C1=C(c2ccc(OC(F)(F)F)cc2)CC2CCC1N2C(=O)NCCO (centres undefined),0.672
COc1cc2c(cc1OC)-c1c3c(cc4c1C(C2)N(C)CC4)OCO3 (centres undefined),0.638
COC(=O)C1=C(c2ccc(-c3ccccc3)c(F)c2)CC2CCC1N2C(=O)NCc1cccc2ccccc12 (centres undefined),0.702
COC(=O)C1=C(c2ccc(F)cc2F)CC2CCC1N2C(=O)N1CCCC1 (centres undefined),0.709
COC(=O)C1=C(c2ccccc2)CC2CCC1N2C(=O)NCc1ccc(C(F)(F)F)cc1 (centres undefined),0.704

The whole of this part, previewed entries included:
Structure,Ecoli growth
O=c1[nH]c(=O)n(-c2cccc3ccccc23)c(O)c1C=NN1CCCCC1c1cccnc1 (centres undefined),0.659
COC(=O)C1=C(c2ccc(F)cc2OCc2ccccc2)CC2CCC1N2C(=O)NCCCc1ccccc1 (centres undefined),0.692
COC(=O)C1=C(c2ccc(OC(F)(F)F)cc2)CC2CCC1N2C(=O)NCCO (centres undefined),0.672
COc1cc2c(cc1OC)-c1c3c(cc4c1C(C2)N(C)CC4)OCO3 (centres undefined),0.638
COC(=O)C1=C(c2ccc(-c3ccccc3)c(F)c2)CC2CCC1N2C(=O)NCc1cccc2ccccc12 (centres undefined),0.702
COC(=O)C1=C(c2ccc(F)cc2F)CC2CCC1N2C(=O)N1CCCC1 (centres undefined),0.709
COC(=O)C1=C(c2ccccc2)CC2CCC1N2C(=O)NCc1ccc(C(F)(F)F)cc1 (centres undefined),0.704
COC(=O)C1=C(c2ccc(-c3ccccc3)c(F)c2)CC2CCC1N2C(=O)NC1Cc2ccccc2C1 (centres undefined),0.735
COC(=O)C1=C(c2ccc(S(C)(=O)=O)cc2)CC2CCC1N2C(=O)NC(C)C (centres undefined),0.676
CC(C)(O)C1C2OC(=O)C1[C@]1(O)CC3O[C@]34C(=O)OC2[C@]14C (some centres undefined) (tested in a mixture with another compound),0.68
NC(Cc1ccc(N(CCCl)CCCl)cc1)C(=O)O (centres undefined),0.667
COC(=O)C1=C(c2ccc3ccccc3c2)CC2CCC1N2C(=O)NCc1ccc(C(F)(F)F)cc1 (centres undefined),0.76
C[C@]12CCC(OS(=O)(=O)O)CC1=CCC1C2CC[C@]2(C)C(=O)CCC12 (some centres undefined),0.717&0.67
COC(=O)C1=C(c2ccc(-c3ccccc3)c(F)c2)CC2CCC1N2C(=O)NC1CCCCC1 (centres undefined),0.729
COC(=O)C1=C(c2cccc(OC)c2OC)CC2CCC1N2C(=O)N1CCC(C)CC1 (centres undefined),0.626
COC(=O)C1=C(c2cc3ccccc3o2)CC2CCC1N2C(=O)NCc1ccc(C(F)(F)F)cc1 (centres undefined),0.741
COC(=O)C1=C(c2cccc(OC)c2OC)CC2CCC1N2C(=O)N1CCOCC1 (centres undefined),0.685
CC(N)CN1CCc2ccc(Br)cc21 (centres undefined),0.709
COC(=O)C1=C(c2cccc(OCc3ccccc3)c2)CC2CCC1N2C(=O)NCCc1ccc(F)cc1 (centres undefined),0.699
O=c1c(C=NN2CCOCC2)c(O)n(-c2ccccc2)c(=S)n1-c1ccccc1,0.73
COC(=O)C1=C(c2cccc(OCc3ccccc3)c2)CC2CCC1N2C(=O)NCc1ccccc1OC (centres undefined),0.757
COC(=O)C1=C(c2ccc(F)cc2OCc2ccccc2)CC2CCC1N2C(=O)NCCOc1ccccc1 (centres undefined),0.74
C[C@]12CCC(O)CC1CCC1C2CC[C@]2(C)C(C3=CC(=O)OC3)C(O)C[C@]12O (some centres undefined),0.688
COC(=O)C1=C(c2cccc(C#N)c2)CC2CCC1N2C(=O)NCCO (centres undefined),0.63
Oc1ccc2c3c1OC1C(O)CC[C@@]4(O)C(C2)N(CC2CCC2)CC[C@]314 (some centres undefined),0.691&0.655
COC(=O)C1=C(c2cccc(OC)c2OC)CC2CCC1N2C(=O)N1CCCC1 (centres undefined),0.716
O=[N+]([O-])OC1COC2C(O[N+](=O)[O-])COC12 (centres undefined),0.665
COC(=O)C1=C(c2ccccc2)CC2CCC1N2C (centres undefined),0.718
COC(=O)C1=C(c2cccc(C#N)c2)CC2CCC1N2C(=O)NCCOc1ccccc1Cl (centres undefined),0.692
COC(=O)C1=C(c2ccc(OC)c(OC)c2)CC2CCC1N2C(=O)N1CCOCC1 (centres undefined),0.672
COC(=O)C1=C(c2ccc(F)cc2OCc2ccccc2)CC2CCC1N2C(=O)NC(C)C (centres undefined),0.716
COC(=O)C1=C(c2ccccc2)CC2CCC1N2C(=O)N1CCC(C)CC1 (centres undefined),0.643
COC(=O)C1=C(c2c(C)noc2C)CC2CCC1N2C(=O)NCc1ccco1 (centres undefined),0.661
O=C1C2CCN(CC2)C1Cc1ccc2ccccc2c1O (centres undefined),0.687
COC(=O)C1=C(c2ccc(C(C)=O)cc2)CC2CCC1N2C(=O)NCCOc1ccccc1Cl (centres undefined),0.691
O=P(NC(c1ccccc1)C1CC1CO)(c1ccccc1)c1ccccc1 (centres undefined),0.697
Cc1ccc(-n2c(O)c(C=NN3CCCCC3c3cccnc3)c(=O)[nH]c2=S)cc1 (centres undefined),0.708
COC(=O)C1=C(c2ccccc2OCc2ccccc2)CC2CCC1N2C(=O)NCc1cccc(C(F)(F)F)c1 (centres undefined),0.693
COC(=O)C1=C(c2cccc(C#N)c2)CC2CCC1N2C(=O)NCCc1ccccc1 (centres undefined),0.668
COC(=O)C1=C(c2ccc(-c3ccccc3)c(F)c2)CC2CCC1N2C(=O)NCCOc1ccc(OC)cc1 (centres undefined),0.717
COC(=O)C1=C(c2ccccc2OCc2ccccc2)CC2CCC1N2C(=O)NCc1ccc([N+](=O)[O-])cc1 (centres undefined),0.734
C=C(CO)CC1CC(O)[C@]2(C)OC3CC4OC5C[C@]6(C)O[C@]7(C)CCC8OC9C[C@]%10(C)OC%11C(C)=CC(=O)OC%11CC%10OC9CC(C)C8OC7CC6O[C@]5(C)CC=CC4OC3CC2O1 (some centres undefined),0.708
C[C@]12NC(Cc3ccccc31)c1ccccc12,0.741
COC(=O)C1=C(c2cccc(OCc3ccccc3)c2)CC2CCC1N2C(=O)NCc1cc(C)oc1C(F)(F)F (centres undefined),0.692
COC(=O)C1=C(c2ccc(OC)c(OC)c2)CC2CCC1N2C(=O)NCCOc1ccccc1Cl (centres undefined),0.686
COC(=O)C1=C(c2ccc(S(C)(=O)=O)cc2)CC2CCC1N2C(=O)N1CCC(C)CC1 (centres undefined),0.634
COC(=O)C1=C(c2ccc(-c3ccccc3)c(F)c2)CC2CCC1N2C(=O)NC1CC1 (centres undefined),0.696
CC(N)Cc1cnc[nH]1 (centres undefined),0.69
C=CCN1C(=O)NC(=O)C(=Cc2cccn2C)C1=O,0.685
COC(=O)C1=C(c2ccc(F)cc2OCc2ccccc2)CC2CCC1N2C(=O)NCCNC(C)=O (centres undefined),0.654

An excerpt from above in order of heavy-atom count, ascending:
Structure,Ecoli growth
CC(N)Cc1cnc[nH]1 (centres undefined),0.69
C[C@]12NC(Cc3ccccc31)c1ccccc12,0.741
COC(=O)C1=C(c2ccc(S(C)(=O)=O)cc2)CC2CCC1N2C(=O)N1CCC(C)CC1 (centres undefined),0.634
COC(=O)C1=C(c2ccc(F)cc2OCc2ccccc2)CC2CCC1N2C(=O)NCCNC(C)=O (centres undefined),0.654
COC(=O)C1=C(c2ccccc2OCc2ccccc2)CC2CCC1N2C(=O)NCc1ccc([N+](=O)[O-])cc1 (centres undefined),0.734
COC(=O)C1=C(c2cccc(OCc3ccccc3)c2)CC2CCC1N2C(=O)NCc1cc(C)oc1C(F)(F)F (centres undefined),0.692
C=C(CO)CC1CC(O)[C@]2(C)OC3CC4OC5C[C@]6(C)O[C@]7(C)CCC8OC9C[C@]%10(C)OC%11C(C)=CC(=O)OC%11CC%10OC9CC(C)C8OC7CC6O[C@]5(C)CC=CC4OC3CC2O1 (some centres undefined),0.708

Further results follow.
Structure,Ecoli growth
COC(=O)C1=C(c2ccc(Cl)c(C(F)(F)F)c2)CC2CCC1N2C(=O)NC1CCCCC1 (centres undefined),0.715
COC(=O)C1=C(c2cccc(OCc3ccccc3)c2)CC2CCC1N2C(=O)NCc1ccccc1C(F)(F)F (centres undefined),0.692
COC(=O)C1=C(c2cc3ccccc3o2)CC2CCC1N2C(=O)NCCNC(C)=O (centres undefined),0.701
COC(=O)C1=C(c2ccc(-c3ccccc3)c(F)c2)CC2CCC1N2C(=O)N1CCCC1 (centres undefined),0.685
COC(=O)C1=C(c2ccc(C(C)=O)cc2)CC2CCC1N2C(=O)NCCCOC(C)C (centres undefined),0.7
COC(=O)C1=C(c2cccc(C#N)c2)CC2CCC1N2C(=O)NCc1cc(C)oc1C(F)(F)F (centres undefined),0.689
COC(=O)C1=C(c2ccc3ccccc3c2)CC2CCC1N2C(=O)NCC1CC1 (centres undefined),0.625
CC1OCC(C[N+](C)(C)C)O1 (centres undefined),0.673
COC(=O)C1=C(c2ccccc2)CC2CCC1N2C(=O)N1CCC(O)CC1 (centres undefined),0.696
COC(=O)C1=C(c2ccc(S(C)(=O)=O)cc2)CC2CCC1N2C(=O)NCc1cccc2ccccc12 (centres undefined),0.692
COC(=O)C1=C(c2cccc(OC)c2OC)CC2CCC1N2C(=O)NC(C)C (centres undefined),0.683
COc1ccc2c(c1)C(=Cc1cnc[nH]1)C(=O)N2,0.662
COC(=O)C1=C(c2ccc3ccccc3c2)CC2CCC1N2C(=O)N1CCOCC1 (centres undefined),0.68
COC(=O)C1=C(c2ccccc2)CC2CCC1N2C(=O)NCC1CC1 (centres undefined),0.64
CCOC(=O)[C@]12Cc3cc(OC)c(OC)cc3C1N(Cc1ccccc1)C(=O)c1ccccc12 (some centres undefined),0.652
COC(=O)C1=C(c2ccc(OC)c(OC)c2)CC2CCC1N2C(=O)NCCNC(C)=O (centres undefined),0.672

No new results follow: an excerpt of the list.
Structure,Ecoli growth
COC(=O)C1=C(c2ccccc2)CC2CCC1N2C(=O)NCC1CC1 (centres undefined),0.64
CCOC(=O)[C@]12Cc3cc(OC)c(OC)cc3C1N(Cc1ccccc1)C(=O)c1ccccc12 (some centres undefined),0.652
COC(=O)C1=C(c2ccc(OC)c(OC)c2)CC2CCC1N2C(=O)NCCNC(C)=O (centres undefined),0.672
